BJeLR viability = BJeLR cell viability reduction; BJeLR fibroblasts viability, CellTiterGlo ATP luminescence, 48 h; HRASV12, hTERT and SV40 LT/ST transformed; viability loss activity score, % (test concentration not listed); 30,000 tested, 0.64% active; in the data active means viability loss activity score above about 50%; about a fifth of its hits are not listed in these tables;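 further: higher score means fewer live cells and less ATP luminescence; stock transfer was 50 or 100 nL into about 30 µL; 0% = vehicle wells and 100% = a reference killing control; one replicate is shown; the record names a cut of 85%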
A1 inh = A1 inhibition | 21,000 tested, 0.51% active | AID 2241 | caspase activation, % (test concentration not listed) | MEF A1-2A-BIM cells, caspase-Glo luminescence, 3 h; percent of clofoctol signal, DMSO as zero;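 active means most replicate scores above 10, or exactly half above 10 with mean activity above 10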;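 further: effector caspase 3 and 7 activity cleaving a DEVD luciferin substrate; 50 nL library stock added to about 30 µL; numbers are from one replicate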
* = called active by the depositor; . = not tested or not shown.

Structure | A1 inh | BJeLR viability
C[C@H]1CN([C@@H](C)CO)C(=O)c2cccc(NS(=O)(=O)c3cn(C)cn3)c2O[C@H]1CN(C)Cc1ccc(C(F)(F)F)cc1 | . | -0.2
C[C@H]1CN([C@@H](C)CO)C(=O)c2cccc(NC(=O)Nc3cccc4ccccc34)c2O[C@H]1CN(C)C | . | 2.0
O=C(Nc1ccc(F)cc1F)c1cnccn1 | -4.5 | -8.8
O=C(NC(c1ccccc1)c1ccccc1)c1cccnc1 | 0.6 | -1.7
CCN(C(=O)c1cccc2c1SCCC2=O)c1cc(Cl)ccc1OC | 0.0 | -4.7
C[C@H](CO)N1C[C@H](C)[C@@H](CN(C)Cc2ccc(Cl)c(Cl)c2)Oc2ccc(NC(=O)C3CCCCC3)cc2C1=O | 0.8 | 2.2
C[C@@H]1CN([C@H](C)CO)C(=O)c2cc(NC(=O)CCC(F)(F)F)ccc2O[C@H]1CN(C)S(C)(=O)=O | 0.6 | -5.9
Cc1nc2ccccc2c(=O)n1/N=C/c1ccc(Cl)c(Cl)c1 | 1.2 | 0.9
Cc1ccc(S(=O)(=O)N(C)C[C@@H]2Oc3c(NS(=O)(=O)c4ccccc4)cccc3C(=O)N([C@H](C)CO)C[C@H]2C)cc1 | . | 0.5
CCc1cccc(NC(=S)N2CCC(c3ccccc3)C2)c1 (stereo not given) | 0.2 | -2.1
CCC(C(=O)OC)n1cnc2c(nnn2-c2cccc(Cl)c2)c1=O (stereo not given) | -0.2 | -3.5
C[C@H]1CN([C@@H](C)CO)C(=O)c2cccc(NC(=O)C3CCCCC3)c2O[C@@H]1CN(C)C(=O)Nc1ccc2c(c1)OCO2 | . | 1.5
Cc1noc(C)c1NC(=O)Nc1cccc2c1O[C@@H](CN(C)CC1CCCCC1)[C@@H](C)CN([C@@H](C)CO)C2=O | . | 5.8
C/C=C/C1=CC(=O)[C@H](O)[C@H]1O | -1.0 | 1.9
C[C@@H]1CN([C@@H](C)CO)C(=O)c2cccc(NC(=O)c3cnccn3)c2O[C@@H]1CN(C)Cc1ccccc1 | . | -3.1
C/S(=N/C(=O)Nc1ccc(Cl)cc1)c1ccc(OC(=O)c2ccc(Cl)cc2)cc1 (stereo not given) | 0.0 | -3.6

Ordered by count of non-hydrogen atoms (descending): some entries from above.
Structure | A1 inh | BJeLR viability
C[C@H]1CN([C@@H](C)CO)C(=O)c2cccc(NC(=O)C3CCCCC3)c2O[C@@H]1CN(C)C(=O)Nc1ccc2c(c1)OCO2 | . | 1.5
Cc1ccc(S(=O)(=O)N(C)C[C@@H]2Oc3c(NS(=O)(=O)c4ccccc4)cccc3C(=O)N([C@H](C)CO)C[C@H]2C)cc1 | . | 0.5
Cc1noc(C)c1NC(=O)Nc1cccc2c1O[C@@H](CN(C)CC1CCCCC1)[C@@H](C)CN([C@@H](C)CO)C2=O | . | 5.8
CCC(C(=O)OC)n1cnc2c(nnn2-c2cccc(Cl)c2)c1=O (stereo not given) | -0.2 | -3.5
CCc1cccc(NC(=S)N2CCC(c3ccccc3)C2)c1 (stereo not given) | 0.2 | -2.1

Continuation:
Structure | A1 inh | BJeLR viability
COCCn1c(C)cc(C(=O)CSc2nnc3ccccn23)c1C | . | 6.9
Cc1ccc(-c2nc(C#N)c(NCCCN(C)C)o2)cc1 | . | 6.5
O=S(=O)(Nc1cccc(C(F)(F)F)c1)c1ccccc1 | -0.5 | 1.8
C[C@H](CO)N1C[C@H](C)[C@H](CN(C)S(=O)(=O)c2ccc(F)cc2)Oc2ccc(NS(=O)(=O)c3ccc(Cl)cc3)cc2C1=O | -0.1 | -1.6
Cc1ccc(S(=O)(=O)N(C)C[C@@H]2Oc3c(NS(C)(=O)=O)cccc3C(=O)N([C@H](C)CO)C[C@@H]2C)cc1 | . | -3.5
C[C@H]1CN([C@@H](C)CO)C(=O)c2cccc(NC(=O)C3CCCCC3)c2O[C@H]1CN(C)C(=O)Nc1ccccc1 | . | 0.5
C[C@H](CO)N1C[C@H](C)[C@@H](CN(C)Cc2ccc(-c3ccccc3)cc2)Oc2ccc(NS(=O)(=O)c3ccc(F)cc3)cc2C1=O | 0.3 | 0.8
C[C@@H]1CN([C@@H](C)CO)C(=O)c2cc(NS(=O)(=O)c3ccccc3)ccc2O[C@@H]1CN(C)C(=O)Nc1ccccc1 | 0.5 | 0.4
C[C@H](CO)N1C[C@H](C)[C@@H](CN(C)S(=O)(=O)c2cn(C)cn2)Oc2ccc(NS(=O)(=O)c3ccccc3)cc2C1=O | -0.5 | -5.3
C[C@H](CO)N1C[C@H](C)[C@@H](CN(C)Cc2ccc(C(F)(F)F)cc2)Oc2c(NC(=O)c3ccc(-c4nccs4)cc3)cccc2C1=O | . | -0.8
O=C(NC1CC1)c1sc2ccccc2c1Cl | -4.6 | 3.1
C[C@H](CO)N1C[C@H](C)[C@H](CN(C)C(=O)Nc2ccc(F)cc2)Oc2c(NC(=O)c3ccc(-c4nccs4)cc3)cccc2C1=O | . | -9.1
Cc1ccc(S(=O)(=O)Nc2ccc3c(c2)C(=O)N([C@@H](C)CO)C[C@@H](C)[C@H](CN(C)Cc2ccc(Cl)c(Cl)c2)O3)cc1 | -0.2 | -1.2
COc1cccc(-c2nnc(SCC(=O)N3CCCC(C)C3)o2)c1 (stereo not given) | . | 3.3
C[C@@H]1CN([C@H](C)CO)C(=O)c2cccc(NC(=O)Nc3ccc(C(F)(F)F)cc3)c2O[C@H]1CN(C)S(=O)(=O)c1ccc(F)cc1 | . | -0.7
Cc1ccc(S(=O)(=O)N(C)C[C@@H]2Oc3ccc(NS(=O)(=O)c4cccs4)cc3C(=O)N([C@H](C)CO)C[C@H]2C)cc1 | 0.6 | -1.3
C[C@H](CO)N1C[C@H](C)[C@@H](CN(C)CC2CC2)Oc2c(NC(=O)C3CCOCC3)cccc2C1=O | . | -0.5
CN(C)C1CS(=O)(=O)CC1N(C)C (stereo not given) | -0.3 | 4.5
C[C@H](CO)N1C[C@H](C)[C@@H](CN(C)S(=O)(=O)c2ccc(F)cc2)Oc2c(cccc2N(C)C)C1=O | . | -2.3
CNC[C@@H]1Oc2c(cccc2N(C)C)C(=O)N([C@H](C)CO)C[C@H]1C | . | 0.6
CCOCC(=O)Nc1c(C(=O)Nc2cccc(OC)c2)oc2ccccc12 | -1.0 | -2.2
N#CC1=C(N)N=C(SCC(=O)Nc2ccccc2)C(C(N)=O)C12CCCCC2 (stereo not given) | -0.2 | 5.7
Cc1cc(C(=O)Nc2cccc3c2O[C@@H](CN(C)Cc2ccc(Oc4ccccc4)cc2)[C@@H](C)CN([C@H](C)CO)C3=O)n(C)n1 | . | 0.9
CN1CCN(c2nc3cc(C(F)(F)F)ccc3n3cccc23)CC1 | -1.5 | 2.9
C[C@@H]1CN([C@H](C)CO)C(=O)c2cc(NC(=O)Cn3cnnn3)ccc2O[C@@H]1CN(C)S(=O)(=O)c1ccccc1 | 0.8 | -3.4
C[C@H]1CN([C@@H](C)CO)C(=O)c2cc(NC(=O)C3CC3)ccc2O[C@@H]1CN(C)Cc1ccc(Cl)c(Cl)c1 | 1.2 | -0.6
CC(C)NC(=O)Nc1ccc2c(c1)C(=O)N([C@H](C)CO)C[C@H](C)[C@@H](CN(C)C(=O)NC(C)C)O2 | 0.0 | 6.5
O=C1CC(c2ccccc2)CC(O)=C1C=NCc1ccco1 (stereo not given) | 1.3 | -2.6
Cn1c(CNC(=O)c2cccs2)nnc1SCc1ccccc1 | 0.6 | -0.6
CC(SCc1nc2ccccc2[nH]1)c1ccccc1 (stereo not given) | 0.0 | 4.5
Cc1noc(C)c1NC(=O)Nc1ccc2c(c1)C(=O)N([C@H](C)CO)C[C@H](C)[C@@H](CN(C)S(=O)(=O)c1ccc(F)cc1)O2 | -0.7 | 1.9
C[C@H](CO)N1C[C@H](C)[C@@H](CN(C)Cc2ccc(-c3ccccc3)cc2)Oc2c(cccc2N(C)C)C1=O | . | 2.7
Cc1ccccc1OCCn1c(SCc2nc3ccccc3[nH]2)nc2ccccc21 | . | -0.8
C[C@H](CO)N1C[C@H](C)[C@H](CN(C)Cc2ccc(C(=O)Nc3ccccc3N)cc2)Oc2ccc(NC(=O)Nc3cccc4ccccc34)cc2C1=O | . | 3.1
Cc1noc(C)c1S(=O)(=O)Nc1ccc2c(c1)C(=O)N([C@H](C)CO)C[C@H](C)[C@H](CN(C)C(=O)Nc1ccc(F)cc1)O2 | 0.8 | -2.9
O=C(O)CC(NCc1ccccc1)c1ccccc1 (stereo not given) | -0.4 | -0.8
COC(=O)c1cc2c(Cl)nc3ccc(C)cc3c2s1 | . | 3.7
COc1ccc(CCNC(=O)c2ccc3c(=O)n(CCC4=CCCCC4)c(=S)[nH]c3c2)cc1OC | -0.7 | 5.1
CCOC(=O)c1ccc2nc(C(F)(F)F)nc(NCCCc3ccccc3)c2c1 | -0.8 | 1.0
CCOc1ccc(NC(=O)N(CCCN2CCOCC2)Cc2cccnc2)cc1 | 0.8 | 1.9
CS(=O)(=O)c1sc(NC(=O)Nc2ccc(Cl)cc2)c2c1C=CCC2 | -1.1 | -2.2
C[C@H](CO)N1C[C@H](C)[C@H](CN(C)Cc2ccc(Oc3ccccc3)cc2)Oc2ccc(NC(=O)C3CC3)cc2C1=O | -0.2 | 0.5
CCCC(C)C(=O)NCc1ccccc1OC (stereo not given) | 1.5 | 7.0
NNC(=O)Cc1csc2nc(-c3ccccc3)nn12 | 0.6 | -5.7
Cc1cccc(NC(=O)NC(=O)c2ccc(C(C)(C)C)s2)n1 | -7.3 | -3.7
Nc1nonc1-c1nc2ccccc2n1Cc1ccc(F)cc1Cl | -0.8 | 7.3
O=C(Nc1ccccc1SCC(O)CSc1cccs1)c1ccc(Cl)cc1 (stereo not given) | . | 3.8
COc1ccc(CN(C)C[C@H]2Oc3ccc(NC(=O)C4CC4)cc3C(=O)N([C@H](C)CO)C[C@@H]2C)cc1 | -0.4 | 0.5
C[C@@H]1CN([C@H](C)CO)C(=O)c2cc(NS(C)(=O)=O)ccc2O[C@H]1CN(C)S(=O)(=O)c1cccs1 | -0.6 | 1.4
COc1ccc(-n2nnc3c(=O)n(Cc4cccc(C(F)(F)F)c4)cnc32)cc1 | -1.1 | -5.0
COc1ccc(S(=O)(=O)N(C)C[C@@H]2Oc3c(NS(=O)(=O)c4ccc(Cl)cc4)cccc3C(=O)N([C@H](C)CO)C[C@@H]2C)cc1 | . | -3.4
Cc1noc(C)c1S(=O)(=O)Nc1ccc2c(c1)C(=O)N([C@H](C)CO)C[C@H](C)[C@@H](CN(C)Cc1ccc(C(=O)O)cc1)O2 | 0.1 | 4.8
C[C@@H]1CN([C@@H](C)CO)C(=O)c2cc(NC(=O)CCC(F)(F)F)ccc2O[C@@H]1CN(C)S(C)(=O)=O | -0.5 | -2.4
COc1ccc(NC(=O)N(C)C[C@@H]2Oc3c(NC(=O)Nc4ccccc4)cccc3C(=O)N([C@H](C)CO)C[C@@H]2C)cc1 | . | -5.5
Cc1ccc(CNC(=O)C2c3ccccc3Oc3ccccc32)cc1 | 0.4 | -2.1
C[C@@H]1CN([C@@H](C)CO)C(=O)c2cc(NC(=O)Nc3ccc4c(c3)OCO4)ccc2O[C@H]1CN(C)Cc1ccc(Cl)c(Cl)c1 | -0.7 | -0.5

Following part.
Structure | A1 inh | BJeLR viability
CCc1ccc(CNC(=O)c2ccc3c(c2)ncn3C2CCCC2)cc1 | 0.7 | -1.1
CC(C)=CCc1c(O)c(CC=C(C)C)c2c(c1O)C(=O)CC(c1ccc(O)cc1O)O2 (stereo not given) | -0.7 | -1.7
Cc1ccc(S(=O)(=O)/N=C(/c2ccccc2)N2CCOCC2)cc1 | 0.1 | 1.3
CSc1cccc(NC(=O)C2(S(=O)(=O)c3ccc(C)cc3)CC2)c1 | . | 5.0
C[C@H]1CN([C@@H](C)CO)C(=O)c2cccc(NC(=O)c3ccc(-c4nccs4)cc3)c2O[C@@H]1CN(C)C | . | -2.8
C[C@@H]1CN([C@H](C)CO)C(=O)c2cc(NC(=O)c3ccncc3)ccc2O[C@H]1CN(C)C(=O)Nc1ccc2c(c1)OCO2 | 0.1 | 1.3
C[C@@H]1CN([C@@H](C)CO)C(=O)c2cccc(NS(=O)(=O)c3ccc(Cl)cc3)c2O[C@@H]1CN(C)C(=O)Nc1ccccc1 | . | -1.5
C[C@@H]1CN([C@@H](C)CO)C(=O)c2cc(NC(=O)C3CCCCC3)ccc2O[C@@H]1CN(C)C(=O)Nc1ccc(F)cc1 | 0.0 | 1.9
C[C@@H]1CN([C@H](C)CO)C(=O)c2cccc(NS(=O)(=O)c3cn(C)cn3)c2O[C@@H]1CN(C)C(=O)Nc1cccc2ccccc12 | . | 0.3
CC(CCc1ccccc1)NC(=O)c1ccccc1C(=O)O (stereo not given) | -0.2 | -2.1
C[C@@H]1CN([C@@H](C)CO)C(=O)c2cc(NC(=O)c3ccncc3)ccc2O[C@@H]1CN(C)S(=O)(=O)c1ccc(F)cc1 | -0.2 | -1.8
COc1cc(O[C@@H]2O[C@H](CO)[C@@H](O)[C@H](O)[C@H]2O)cc2occ(-c3ccc(O)cc3)c(=O)c12 | 0.1 | .
O=C(Nc1ccccc1)c1cc([N+](=O)[O-])ccc1Cl | -0.4 | -2.8
Cn1cnnc1S/C=C/C(=O)c1ccc(Cl)cc1 | -1.1 | 10.8
C[C@H](CO)N1C[C@H](C)[C@H](CN(C)Cc2ccc(-c3ccccc3)cc2)Oc2ccc(NC(=O)C3CC3)cc2C1=O | 0.4 | -0.1
C[C@H]1CN([C@@H](C)CO)C(=O)c2cc(NC(=O)Cn3cnnn3)ccc2O[C@@H]1CN(C)C(=O)Nc1ccc(F)cc1 | 0.8 | 0.1
Clc1ccc(CSc2ncccn2)cc1 | -0.9 | -1.1

Bioassay records deposited in PubChem BioAssay by Broad Institute.

Not all compounds are listed; rates above refer to the full screens.
